Screens from PubChem.
HSV augment: increases HSV replication in cells; AID 1956; maximum fold increase; actives 0.005% (n = 220,000); HSV replication augmentation in cells, fold increase;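 active means peak rise of 1.5-fold or more in the series; tested in PC3 cells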;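 further: first round at 10 µM; read as green reporter fluorescence; hits show the peak of a series up to 25 µM; 1 = signal of infected wells without compound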
GALR2 ag: activates the human galanin receptor 2. O43603. GALR2-expressing cells, agonist activation read-out. activation, %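 (tested at 5 µM)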. actives 0.48% (n = 140,000). AID 803;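 active means above mean plus 3 SD of all compounds, about 5% in these data, not always enough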;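 further: 0% = vehicle buffer wells and 100% = reference agonist at full effect; tested in CHO reporter cells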
Target sequence (O43603 whole entry, looked up): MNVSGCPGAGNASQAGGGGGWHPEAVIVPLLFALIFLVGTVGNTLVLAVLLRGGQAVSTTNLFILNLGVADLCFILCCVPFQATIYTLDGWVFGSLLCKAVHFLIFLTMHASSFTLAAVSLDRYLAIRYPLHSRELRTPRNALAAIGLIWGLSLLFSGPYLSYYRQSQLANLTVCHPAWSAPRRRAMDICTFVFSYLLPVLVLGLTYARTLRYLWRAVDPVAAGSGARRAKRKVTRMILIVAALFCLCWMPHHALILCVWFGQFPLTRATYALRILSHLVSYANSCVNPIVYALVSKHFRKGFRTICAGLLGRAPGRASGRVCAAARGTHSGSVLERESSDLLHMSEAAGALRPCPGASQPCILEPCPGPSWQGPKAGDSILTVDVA
PKD1 kinase inh: blocks activity of human protein kinase D1; Q15139; PKD1 kinase fluorescence polarization assay; inhibition, %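 (about 10 µM by stock and volumes)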; actives 0.056% (n = 200,000);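 active means inhibition of 50% or more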;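 further: controls were vehicle for no effect and a reference inhibitor for full effect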
INS promoter inh: TRM-6 insulin promoter activity inhibition; TRM-6 cells (human fetal islet line), insulin promoter-eGFP reporter, imaging; reporter expression induced with tamoxifen; inhibition, % at 2 µM; actives 0.9% (n = 130,000);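 active means inhibition above the mean plus 3 SD, with well images judged a real hit on visual review, cut at about 60% in these data, passing the limit was not always enough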
RGS16-Gao: regulators of human RGS16-Galphao interaction | actives 0.38% (n = 220,000) | O15492+P09471 | bead-based flow cytometry RGS16-Galphao binding, fluorescence; actives lie on both sides | binding response (% of control), % at 10 µM;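 active means below 25% or above 175%, edge rows of some plates excepted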;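 further: Galphao activated by GDP with aluminum fluoride before binding; 100% = wells without compound and 0% = beads without RGS; some results beyond the cut were filed as inactive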
Target sequence (O15492 whole entry, looked up): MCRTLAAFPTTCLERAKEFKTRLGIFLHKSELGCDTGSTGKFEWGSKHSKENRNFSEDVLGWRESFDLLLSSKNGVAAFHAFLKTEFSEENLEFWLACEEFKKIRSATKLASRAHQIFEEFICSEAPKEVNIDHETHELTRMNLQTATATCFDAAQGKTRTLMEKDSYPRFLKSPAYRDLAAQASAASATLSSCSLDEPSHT
Target sequence (P09471 whole entry, looked up): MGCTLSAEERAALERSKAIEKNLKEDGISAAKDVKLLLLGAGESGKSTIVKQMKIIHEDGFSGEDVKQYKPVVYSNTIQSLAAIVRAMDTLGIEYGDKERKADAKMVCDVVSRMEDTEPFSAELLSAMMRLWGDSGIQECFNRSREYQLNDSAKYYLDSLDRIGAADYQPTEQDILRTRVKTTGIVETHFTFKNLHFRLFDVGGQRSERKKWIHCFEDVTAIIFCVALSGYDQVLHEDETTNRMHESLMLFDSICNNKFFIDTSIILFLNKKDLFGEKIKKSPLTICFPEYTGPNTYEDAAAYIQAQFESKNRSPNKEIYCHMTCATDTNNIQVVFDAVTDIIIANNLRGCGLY
INS promoter inh cell count: recorded beside INS promoter inh, whose call it bears; normalized cell count, %; measured here: cell count, toxicity; reference of the scale not given here;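 cells exposed to compound for 48 h; stained nuclei by imaging scaled within each plate; lower means fewer cells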
HSV augment primary fold: also measured in HSV augment; calls as there; fold increase; compound at 10 µM; measured here: primary screen fold increase 10 uM; tested in PC3 cells;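 GFP signal in the first replicate; 1 = infected wells without compound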
The depositor's hits bear a star; i = inactive; · = no result given.

SMILES	HSV augment	HSV augment primary fold	GALR2 ag	PKD1 kinase inh	INS promoter inh	INS promoter inh cell count	RGS16-Gao
Cc1nn(C)c(C)c1CN(C)C(=O)c1cc2n(n1)C(C(F)(F)F)CC(c1cccs1)N2 (configuration not stated)	i	1	-3.5	-9	35	110	103
CC(C)(O)C#Cc1ccc([C@@H]2C[C@H]3CN(c4ccccc4)C(=O)[C@]34CCCN24)s1	i	0.94	·	3	·	·	93
CCCCCC(=O)Nc1cccc(C2=NOC3(C2)C[C@H](C(N)=O)N(C(=O)[C@H]2CCC(=O)N2)C3)c1 (some centres not stated)	i	0.92	·	·	·	·	80
CC(C)(C)c1cc(-c2n[nH]c(=S)n2-c2ccc(Cl)cc2)n[nH]1	i	0.93	·	·	·	·	98
CCC(C(=O)Nc1ccccc1)c1ccccc1 (configuration not stated)	i	0.95	-0.7	-10	-24	85	106
CC1(C)C(=O)OC(c2ccccc2)C(C)(C)C1=O (configuration not stated)	i	1.1	·	·	·	·	101
CC(OC(=O)CCc1nc2ccccc2[nH]c1=O)c1ccccc1 (configuration not stated)	i	0.87	·	-3	-471	100	113
O=C(CSc1ncnc2scc(-c3ccccc3)c12)N1CCN(c2ccccc2F)CC1	i	0.87	-1.6	-7	14	94	106
Cc1cc(NC(=O)CSc2nc3c(sc4ccccc43)c(=O)n2CCc2ccccc2)n[nH]1	i	0.66	-0.8	-2	19	90	103
COc1ccc(CC2(C)OC(c3ccncc3)=NN2C(C)=O)cc1 (configuration not stated)	i	0.95	·	-6	-50	110	103
O=c1[nH]c(C2CCCCC2)nc2ccccc12	i	1	-0.3	1	·	·	63
CN(C)c1ccc(N=Cc2ccco2)cc1	i	0.94	0.0	0	64	64	72
CC(=O)c1cc(-c2ccc(F)cc2)n(CCC(=O)NC(C)(C)C)c1C	i	1.1	·	-2	4	151	104
Cc1ccc(N2C(=O)CC(Sc3nc4ccccc4o3)C2=O)cc1Cl (configuration not stated)	i	0.9	-2.4	-1	-8	121	99
CCC1CCCCN1CCCn1c(=S)[nH]c2ccccc2c1=O (configuration not stated)	i	0.89	-0.3	-6	43	105	69
Cc1cc2ccccn2c1C(=O)c1cc([N+](=O)[O-])cc([N+](=O)[O-])c1	i	1	·	-5	·	·	107
Cn1cc(Cl)nc1C(O)c1ccccc1 (configuration not stated)	i	1	-1.1	-17	·	·	105
Cc1ccc2oc(Nc3nc(C)cc(C)n3)nc2c1	i	1	-1.3	-3	·	·	86
O=C(Cc1ccccc1)Nc1cccc(N2CCCC2)c1	i	0.92	-1.9	2	-81	105	96
CC(=O)c1c(C)[nH]c(C(=O)OCC(=O)Nc2ccccc2Cl)c1C	i	0.99	·	-2	46	101	84
COCC(=O)Nc1cc(C(=O)Nc2ccccc2)ccc1Cl	i	1	·	3	·	·	102
Cc1ccc(C(=O)Nc2ccon2)cc1S(=O)(=O)N1CCCCCC1	i	0.91	-2.6	-9	0	95	99
CCOc1cc(/C=C2/SC(=S)N(C)C2=O)ccc1Oc1ccc([N+](=O)[O-])cc1[N+](=O)[O-]	·	·	·	-1	-21	123	100
O=Cc1ccc(Sc2ncccn2)o1	i	0.97	·	-6	-86	128	110
CC(=O)Nc1ccc(NC(=O)c2cc(C)nn2-c2ccccc2)cc1	i	0.9	-1.2	-5	56	72	104

Entries of single compounds as entered above. Order of values: HSV augment | HSV augment primary fold | GALR2 ag | PKD1 kinase inh | INS promoter inh | INS promoter inh cell count | RGS16-Gao
Cc1ccc2oc(Nc3nc(C)cc(C)n3)nc2c1 as listed: i | 1 | -1.3 | -3 | · | · | 86
CCC(C(=O)Nc1ccccc1)c1ccccc1 (configuration not stated) as listed: i | 0.95 | -0.7 | -10 | -24 | 85 | 106
O=C(Cc1ccccc1)Nc1cccc(N2CCCC2)c1 as listed: i | 0.92 | -1.9 | 2 | -81 | 105 | 96
O=C(CSc1ncnc2scc(-c3ccccc3)c12)N1CCN(c2ccccc2F)CC1 as listed: i | 0.87 | -1.6 | -7 | 14 | 94 | 106

The list goes on.
SMILES	HSV augment	HSV augment primary fold	GALR2 ag	PKD1 kinase inh	INS promoter inh	INS promoter inh cell count	RGS16-Gao
CCC1CCCCN1S(=O)(=O)c1ccc(NC(=O)c2cccs2)cc1 (configuration not stated)	i	0.77	-0.5	-9	62	129	109
COc1ccccc1CC(=O)O/N=C(\N)c1cccc([N+](=O)[O-])c1	i	0.99	-2.3	-7	0	107	90
CCCc1nc2sc(C(=O)OCC)c(N)c2c2c1COC(C)(C)C2	i	0.77	0.4	-5	31	135	102
COc1ccc(S(=O)(=O)Nc2ccc(S(=O)(=O)N3CCCCC3)cc2)cc1OC	i	0.97	-1.5	-1	-11	56	98
Cc1ccc(NC(=O)C/C(N)=N/OC(=O)c2ccccc2)cc1	i	0.96	·	1	-18	100	104
CCCc1nnc(NC(=O)CCCN2C(=O)c3ccccc3C2=O)s1	i	1.1	-0.9	-3	-360	62	104
Cc1ccccc1S(=O)(=O)c1cc(C#N)c(=O)[nH]c1N	·	·	·	-4	·	·	101
CC(=C1C(=O)c2ccccc2C1=O)N1CCN(c2ccc(F)cc2)CC1	i	1	·	·	·	·	106
CCOc1ccc(C(=O)Nc2c3c(nn2C(C)(C)C)CSC3)cc1OCC	i	0.96	-1.4	17	36	107	105
COc1ccccc1OCCn1cc(C(=O)O)c2ccccc21	i	1	·	-1	·	·	96
CCC(=O)N1CCC(c2ccc(OC)cc2)=N1	i	1.1	-0.6	-1	32	73	105
COc1cc2c(cc1NC(=O)c1ccc(C(C)(C)C)cc1)CCCC2	·	·	-0.4	5	-43	56	98
Cc1nc(SCC(=O)N2CC(C)OC(C)C2)nc(C)c1C (configuration not stated)	i	1	-0.4	1	-16	116	105
O=C(Nc1ccccc1)N1CCC(C(=O)N(Cc2ccco2)Cc2cccs2)CC1	i	0.9	-1.3	8	·	·	100
Cc1cc(N2C(=O)C(=O)/C(=C(/O)c3ccc(F)cc3)C2c2ccc(Cl)cc2)no1 (configuration not stated)	i	1.1	0.7	-9	-19	169	96
Cn1cccc1C(=O)NC(=O)COC(=O)c1ccccc1O	i	0.94	-0.9	3	9	57	103
Cc1nnc(NC(=O)c2ccc(-c3cccc(C(F)(F)F)c3)o2)s1	i	1.1	-0.2	-1	-26	99	103
CC(=O)N1N=C(c2ccc(C)cc2)CC1c1ccc2c(c1)OCO2 (configuration not stated)	i	0.94	·	·	·	·	105
O=C(NCc1ccccc1)c1ccc(C2SCC(=O)N2Cc2ccccc2)cc1 (configuration not stated)	i	1	-0.4	-14	53	89	96
CCC/C=C(\CCC)C(NC(=O)OCC(C)C)c1ccc(C(=O)OC)cc1 (configuration not stated)	i	0.78	0.0	0	-15	113	96
COc1cccc(N2C(=O)CC(NNC(=O)c3cccs3)C2=O)c1 (configuration not stated)	i	0.95	-0.8	-6	14	113	104
COc1ccc(Cl)cc1-c1nc(SCC(=O)NC2CC2)n[nH]1	i	1	·	-2	·	·	104
Cc1cnc(C(=O)OCC(=O)NC(C)C)cn1	i	1.1	-1.7	-2	26	70	100
Cc1ccc(-n2c(C)cc(/C=N/NC(=O)c3ccncc3)c2C)cc1	i	1.1	-2.5	0	30	79	102
Cc1ccc2nsnc2c1S(=O)(=O)N1CCN(CCc2ccccc2)CC1	i	0.83	-0.6	-5	29	145	100
Next structures follow:
SMILES	HSV augment	HSV augment primary fold	GALR2 ag	PKD1 kinase inh	INS promoter inh	INS promoter inh cell count	RGS16-Gao
Cc1cc(C)n(/N=C/c2ccccc2O)c(=O)c1	i	1	·	8	20	100	95
COc1ccc(-c2nnn(CC(=O)N(Cc3cccs3)C(C)C(=O)NCCC(C)C)n2)cc1OC (configuration not stated)	i	1.1	-1.4	-1	0	71	107
COC(=O)c1c(C)n(-c2ccc(OC)cc2)c2ccc(O)cc12	i	0.77	-1.9	-4	14	139	97
Cc1cccc2cc(COC(=O)C(C)C)c(=O)[nH]c12	i	0.96	-1.0	10	·	·	101
COc1ccc(NC(=O)c2sc3cc(C(F)(F)F)cnc3c2-c2cccs2)cc1	i	0.85	-0.3	2	55	80	97
COc1ccc(OC)c(NC(=O)CC(Cc2ccccc2OC)C(=O)O)c1 (configuration not stated)	i	0.96	-0.7	3	-27	80	112
CCOc1ccc(C2/C(=C(\O)c3c(C)[nH]c(C(=O)OC)c3C)C(=O)C(=O)N2CCN(C)C)cc1 (configuration not stated)	i	1	-1.6	10	31	79	100
Clc1nc(NCc2cccnc2)nc(N2CCOCC2)n1	i	1.1	0.5	-5	35	95	98
CCOC(=O)c1cc(-c2ccccc2)nc2c1c(C)nn2-c1ccccn1	i	0.97	-1.3	-9	40	76	101
COc1cc(/C=N/Nc2nc(Nc3ccc(C)cc3)nc(-n3nc(C)cc3C)n2)cc(OC)c1OC	i	0.67	6.5	-4	18	106	105
COCc1cc(C)nc(SCc2nc3ccccc3c(=O)[nH]2)c1C#N	i	0.97	·	5	·	·	98
CCOC(=O)c1c(C)n(C)c2ccc(OCC(O)CN(CC)CC)cc12 (configuration not stated)	i	1	-2.2	-7	·	·	103
O=C(NC1=NCCS1)c1ccc2c(c1)C(=O)N(Cc1ccco1)C2=O	i	0.93	-0.7	1	-67	107	99
CCOc1ccc2nc(NC(=S)NCc3ccccc3)sc2c1	i	0.8	1.1	-3	-23	71	88
COc1ccc(C(=O)N/C(=C\c2cn(C)c3ccccc23)C(=O)OCCN(C)C)cc1	i	1	·	·	·	·	96
CCOC(=O)/C=C1\SCC(=O)N1CC(=O)Nc1cccc(F)c1	i	1.1	·	-6	·	·	102
Cc1cc(NC(=O)CS(=O)(=O)c2cn(Cc3ccc(F)cc3)c3ccccc23)no1	i	0.88	-3.0	-4	·	·	106
CCN(CC)c1ncc(C)c(=O)[nH]1	i	1.1	-0.9	-4	·	·	205

A different layout for 15 compounds above:
Sequence of screens: HSV augment	HSV augment primary fold	GALR2 ag	PKD1 kinase inh	INS promoter inh	INS promoter inh cell count	RGS16-Gao
Cc1cccc2cc(COC(=O)C(C)C)c(=O)[nH]c12
→ i	0.96	-1.0	10	·	·	101
COc1ccc(NC(=O)c2sc3cc(C(F)(F)F)cnc3c2-c2cccs2)cc1
→ i	0.85	-0.3	2	55	80	97
COc1ccc(OC)c(NC(=O)CC(Cc2ccccc2OC)C(=O)O)c1 (configuration not stated)
→ i	0.96	-0.7	3	-27	80	112
CCOc1ccc(C2/C(=C(\O)c3c(C)[nH]c(C(=O)OC)c3C)C(=O)C(=O)N2CCN(C)C)cc1 (configuration not stated)
→ i	1	-1.6	10	31	79	100
Clc1nc(NCc2cccnc2)nc(N2CCOCC2)n1
→ i	1.1	0.5	-5	35	95	98
CCOC(=O)c1cc(-c2ccccc2)nc2c1c(C)nn2-c1ccccn1
→ i	0.97	-1.3	-9	40	76	101
COc1cc(/C=N/Nc2nc(Nc3ccc(C)cc3)nc(-n3nc(C)cc3C)n2)cc(OC)c1OC
→ i	0.67	6.5	-4	18	106	105
COCc1cc(C)nc(SCc2nc3ccccc3c(=O)[nH]2)c1C#N
→ i	0.97	·	5	·	·	98
CCOC(=O)c1c(C)n(C)c2ccc(OCC(O)CN(CC)CC)cc12 (configuration not stated)
→ i	1	-2.2	-7	·	·	103
O=C(NC1=NCCS1)c1ccc2c(c1)C(=O)N(Cc1ccco1)C2=O
→ i	0.93	-0.7	1	-67	107	99
CCOc1ccc2nc(NC(=S)NCc3ccccc3)sc2c1
→ i	0.8	1.1	-3	-23	71	88
COc1ccc(C(=O)N/C(=C\c2cn(C)c3ccccc23)C(=O)OCCN(C)C)cc1
→ i	1	·	·	·	·	96
CCOC(=O)/C=C1\SCC(=O)N1CC(=O)Nc1cccc(F)c1
→ i	1.1	·	-6	·	·	102
Cc1cc(NC(=O)CS(=O)(=O)c2cn(Cc3ccc(F)cc3)c3ccccc23)no1
→ i	0.88	-3.0	-4	·	·	106
CCN(CC)c1ncc(C)c(=O)[nH]1
→ i	1.1	-0.9	-4	·	·	205
